# BJeLR viability: BJeLR cell viability loss; 0.17% of 300,000 active; BJeLR (HRASV12) viability, CellTiter-Glo ATP luminescence, 48 h; reference of the scale not given here; inhibition, % (test concentration not listed);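 active = replicate mean above 50%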;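 note: 50 nL library stock added to about 25 µL; numbers are from one replicate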
# ugtP null kill: growth inhibition of S. aureus ugtP deletion strain. S. aureus RN4220 ugtP deletion, OD600 growth, 16 h; some inactives read as strong as hits. growth inhibition, % (test concentration not listed). 0.54% of 330,000 active;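 active = z-score under -3 and OD600 up to 0.15 on both plates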;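 note: plate controls were untreated wells for no effect and antibiotic for full effect; wells of about 80 µL received 100 nL stock; the first replicate is given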
# Sa RN4220 lethal: kills Staphylococcus aureus RN4220; S. aureus RN4220 growth, OD600, 16 h; inhibition, % (test concentration not listed); 0.33% of 330,000 active; AID 1259311;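 active = z-score of -3 or lower and OD600 up to 0.18 on both plates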;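 note: plate controls were untreated cells for no effect and reference antibiotic for full effect; stock transfer was 100 nL into about 80 µL; one replicate is shown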
# PrP UTR inh: suppresses PrP 5' UTR mRNA reporter expression; AID 488862; inhibition, % (no concentration beside the values); 0.35% of 340,000 active; cell-based PrP 5' UTR mRNA reporter, plate reader;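 active = every replicate at 50% or more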;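 note: 0 = median of the neutral control wells; tested in H4 reporter cells; numbers are from one replicate; inactives centre near -14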
# Bead autofluor: counter-screen for toxin protease inhibitors: compound fluorescence; compound autofluorescence counterscreen, microsphere flow cytometry; active compounds read high; fluorescence intensity (test concentration not listed); 3.1% of 360,000 active; AID 624483;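 active = at least 3 SD above the mean of all compounds, about 16000 in these data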;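 note: 100 nL of 1 mM stock went into each well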
# Mtb hypoxia rep: reduces hypoxia-regulated biosensor signal in M. tuberculosis; fluorescence inhibition, % (no concentration beside the values); AID 1159583; M. tuberculosis hypoxia-regulated fluorescent reporter, fluorescence; 0.1% of 300,000 active;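 active = 35 to 45% if threefold the growth effect, above 45% if 1.5-fold the growth effect; inactive = the rest, general growth blockers included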;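 note: wells of about 50 µL received 100 nL stock; 0% = vehicle wells and 100% = reference inhibitor wells; whole bacteria with a GFP reporter of the hypoxia response; strong numbers were not always called active; many hits fall short of the cut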
# Mtb hypoxia rep growth: second read-out of Mtb hypoxia rep, no call of its own (marks repeat the call); growth inhibition, %; measured here: M. tuberculosis growth (absorbance);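 0% = vehicle and 100% = reference antibiotic; read after six days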
# The depositor's hits bear a star; nt = no result given.
SMILES,BJeLR viability,ugtP null kill,Sa RN4220 lethal,PrP UTR inh,Bead autofluor,Mtb hypoxia rep,Mtb hypoxia rep growth
COc1ccc(/C=C(\C#N)c2nc3ccccc3[nH]2)cc1O,0,nt,nt,-61,4605,nt,nt
CN1C=CC=C/C1=C1\SC(=S)N(CC(=O)O)C1=O,5,6,2.3,-20,4248,13,3
CC(C)(CCl)C(=O)Nc1ccnc(-c2ccncc2)n1,3,2,-1.2,-8,4182,-5,-1
CC1(C)C(=O)NC(=O)N1Cc1ccccc1,3,-2,-1.0,-13,3931,-10,0
CN(C)c1ccc(/C=N/N(CCC#N)C2=NS(=O)(=O)c3ccccc32)cc1,-6,nt,nt,-11,3849,nt,nt
COC(=O)[C@@]12CCCN1C(c1ccc(-c3ccc(C(C)=O)cc3)c(OC)c1)C1C(=O)N(C)C(=O)C12 (stereo not given in full),nt,2,7.1,nt,nt,10,9
CCOC(=O)c1c(OCCO)nn(-c2ccccc2)c1N,0,4,6.7,-8,4828,12,-8
O=C(NCc1ccccn1)c1cccc(S(=O)(=O)NCc2ccccc2)c1,7,4,3.6,0,5806,5,10
O=C(Nc1scc(-c2ccc(Br)cc2)c1C(=O)O)c1ccccc1F,-9,-6,6.9,-30,nt,-15,-6
CCN(CC)CCNCc1ccc(OCc2ccc(Cl)nc2)c(OC)c1,-8,5,4.4,-12,2299,10,2
Cc1ccc(C(=O)n2ncn(C)c2=S)cc1,-1,3,1.9,-9,4125,10,9
COc1ccc(CN2C3CCCC2CC(NC(=O)c2cccc(F)c2)C3)cc1 (stereo not given),13,3,1.5,-13,3942,-7,-2
COP(=O)(OC)C(Nc1ccc(C)cc1)c1ccc([N+](=O)[O-])cc1 (stereo not given),-7,-1,5.3,-25,7881,6,7
CNc1nc(NN)nc(Nc2ccccc2)n1,1,10,12,-15,3485,6,3
O=C(NC1CCSC1=O)c1cccc(C(=O)NC2CCSC2=O)c1 (stereo not given),-3,-7,0.1,16,2630,nt,nt

# Arranged by molecular weight (lowest first): three of the compounds above.
SMILES,BJeLR viability,ugtP null kill,Sa RN4220 lethal,PrP UTR inh,Bead autofluor,Mtb hypoxia rep,Mtb hypoxia rep growth
CNc1nc(NN)nc(Nc2ccccc2)n1,1,10,12,-15,3485,6,3
COc1ccc(/C=C(\C#N)c2nc3ccccc3[nH]2)cc1O,0,nt,nt,-61,4605,nt,nt
CCN(CC)CCNCc1ccc(OCc2ccc(Cl)nc2)c(OC)c1,-8,5,4.4,-12,2299,10,2

# New compounds follow.
SMILES,BJeLR viability,ugtP null kill,Sa RN4220 lethal,PrP UTR inh,Bead autofluor,Mtb hypoxia rep,Mtb hypoxia rep growth
CCC(C)(C)NC(=O)C(c1ccc(OC)cc1)N(C(=O)CCC(=O)Nc1cc(C)on1)c1cccc(OC)c1 (stereo not given),-6,4,4.5,2,4222,1,0
Cc1ccccc1N(CC(=O)Nc1ccccc1C(=O)NCc1ccco1)S(=O)(=O)c1ccccc1,13,-4,2.6,-15,1918,16,2
O=C(OCc1nnc(-c2ccccc2)o1)c1cc(Cl)ccc1[N+](=O)[O-],0,0,4.2,-17,3427,12,9
COc1ccc(CCN2CC(C(=O)Nc3cc(S(C)(=O)=O)ccc3Cl)CC2=O)cc1OC (stereo not given),nt,3,3.8,-25,6599,5,5
CN(C)/C=C1\C(=O)N(c2ccc(F)cc2F)C(c2cccnc2)S1(=O)=O (stereo not given),-1,21,2.6,-14,3945,10,-7
Cc1ccccc1OCC(=O)NCCNC(=O)c1cccnc1,3,6,3.4,-5,3698,7,2
CC(C)NC(=O)c1ccc(N(Cc2ccccc2)S(C)(=O)=O)cc1,-10,-4,1.3,-22,3348,8,-2
COc1ccccc1N=Nc1c(C)noc1C,4,15,8.4,-18,4272,-6,6
CCN(CC)S(=O)(=O)c1cc(NC(=S)NC(=O)C2CCCC2)ccc1C,nt,-8,7.3,-6,2821,-3,3
COC(=O)CNC(=O)c1ccccc1[N+](=O)[O-],3,4,2.5,-12,8687,5,-1
CC(OC(=O)Cc1c(F)cccc1Cl)C(=O)NC1CCCCC1C (stereo not given),nt,-6,-0.6,-9,3900,-9,8
Cc1occc1C(=O)Nc1ccc(S(N)(=O)=O)cc1,9,1,11,-7,4235,19,0
COc1ccc(-c2csc(NC(=O)c3ccc(S(=O)(=O)N4CCc5ccccc5C4)cc3)n2)c(OC)c1,12,-13,-0.4,-6,1984,-5,3
O=C(CN1CCN(c2ccccc2)CC1)c1ccc2cc[nH]c2c1,-1,3,8.2,-11,4529,3,-1
CC(C)Nc1nc(SCC(N)=O)nc(N2CCOCC2)n1,5,8,4.3,-10,11164,11,4

# Of the compounds above, three contain a nitro group on carbon:
SMILES,BJeLR viability,ugtP null kill,Sa RN4220 lethal,PrP UTR inh,Bead autofluor,Mtb hypoxia rep,Mtb hypoxia rep growth
COP(=O)(OC)C(Nc1ccc(C)cc1)c1ccc([N+](=O)[O-])cc1 (stereo not given),-7,-1,5.3,-25,7881,6,7
O=C(OCc1nnc(-c2ccccc2)o1)c1cc(Cl)ccc1[N+](=O)[O-],0,0,4.2,-17,3427,12,9
COC(=O)CNC(=O)c1ccccc1[N+](=O)[O-],3,4,2.5,-12,8687,5,-1

# Carrying on:
SMILES,BJeLR viability,ugtP null kill,Sa RN4220 lethal,PrP UTR inh,Bead autofluor,Mtb hypoxia rep,Mtb hypoxia rep growth
Cc1cc(C)c2[nH]c(=O)c(CN(Cc3nnnn3C3CCCC3)C3CCCCC3)cc2c1,-5,1,3.4,-18,5283,5,7
CCc1nn(CC(=O)NCCc2ccc(S(N)(=O)=O)cc2)c(=O)c2cc3sccc3n12,3,9,4.1,-20,4345,0,-17
O=C(COc1ccccc1)OCc1cc2ccccc2[nH]c1=O,-8,1,1.9,-20,9626,4,9
O=C(COC(=O)C1CC2CCCC(C1)C2=O)NC(=O)c1ccc(OC(F)F)cc1 (stereo not given),2,-2,0.5,10,4413,6,7
Cc1cccc(C)c1C(=O)N[C@@H](Cc1ccccc1)C(=O)O,-6,nt,nt,7,4194,nt,nt
O=C(Cc1ccc(F)cc1)NCCc1ccccc1,2,-2,4.6,0,4219,5,7
N#Cc1cc2c(nc1SCC(=O)Nc1cc(Cl)cc(Cl)c1)C1CCN2CC1,3,-15,27,-20,20731*,6,3
Cc1cccc(-n2nc([N+](=O)[O-])c(=NC3CCN(Cc4ccccc4)CC3)n2O)c1,0,12,21,-7,4648,nt,nt
CC(C)Cn1c(-c2ccco2)csc1=Nc1cccnc1,-7,2,6.4,-13,4253,nt,nt
O=C1c2ccccc2C(=O)C1Cc1cccc2ccccc12,4,-21,-3.7,-18,21890*,0,11
CCn1c(=N)c(S(=O)(=O)c2ccc(Cl)cc2)cc2c(=O)n3ccccc3nc21,5,5,13,nt,nt,2,-2
COc1ccc(NC(=O)CN(C)S(=O)(=O)c2ccccc2)cc1,4,2,1.5,-21,20336*,3,9
COc1cc(-n2nc(C)c3c2OC(N)=C(C#N)C3c2ccccc2)c(Cl)c(Br)c1O (stereo not given),-1,nt,nt,-15,4667,nt,nt
CC=NN(c1ccccc1)c1ccccc1,nt,8,5.4,nt,nt,1,16
COc1ccc(Cn2c(C3CCCCC3)nc3c(c(=O)c4ccccc4n3C)c2=O)cc1,-7,5,4.9,nt,nt,6,6
CCOc1ccc(-n2ccnc2SCC(=O)Nc2cc(C)on2)cc1,2,5,7.4,-16,4169,-4,3
CC(NC(=S)NC1CCCCC1)c1ccc(C(C)(C)C)cc1 (stereo not given),-2,nt,nt,-18,4523,nt,nt
O=C(CSc1nnc(-c2ccccc2F)n1C1CC1)NC(=O)c1cccc([N+](=O)[O-])c1,-8,-1,6.1,-14,11012,4,2
CC(Oc1ccc(Cl)cc1)C(=O)Nc1ccc(S(=O)(=O)N2CCOCC2)cc1 (stereo not given),1,12,-0.1,-21,3631,17,14
COc1ccc(N/C=C\C(=O)c2ccc(C)cc2)cc1OC,-5,-2,8.5,-76,2681,-5,13
Cc1ccccc1OCC(=O)NN=Cc1cccn1C,nt,5,-1.5,nt,nt,9,8
S=C(NCCc1ccccc1)NC1CC1,-6,9,5.0,-16,2472,4,-1
Oc1ccc(Br)cc1/C=N/NC(=S)NCCc1ccccc1,-10,nt,nt,-27,5734,nt,nt
O=C(Nc1nnc(SCc2ccccc2)s1)c1cccs1,-10,3,6.4,-21,2670,nt,nt
C=Cc1ccc(Cn2c(C(=O)O)c(C=O)c3ccccc32)cc1,1,-3,7.9,-39,4046,19,-2
COC(=O)/C=C/S(=O)(=O)c1ccc(NC(C)=O)cc1,0,14,6.6,-5,15497,17,11
CC(C)C(NC(=O)c1ccccc1F)C(=O)Nc1ccc2c(c1)OCO2 (stereo not given),-8,7,1.8,1,4101,12,0
CCNC(=O)Cn1cnc2c1c(=O)n(C)c(=O)n2C,3,7,2.9,-17,4059,nt,nt
NS(=O)(=O)c1ccc(NC2=CC(c3ccc(F)cc3)N(c3ccc(S(N)(=O)=O)cc3)C2=O)cc1 (stereo not given),13,-3,2.6,-1,4340,5,-10
CCn1cc(-c2ccccc2)c(C(=O)O)c1-c1ccc(OC)cc1,-11,9,17,-20,3992,12,4
CCOC(=O)/C(C(=O)Nc1ccc(Br)cc1)=C1/NC(C)(C)Cc2ccccc21,-9,-42,-11,-18,1894,1,10
COc1ccc(N(CC(=O)NCCC2=CCCCC2)S(=O)(=O)c2ccc(C)cc2)cc1OC,0,30,15,-35,4827,-9,2
CCC(=O)Nc1c(C(=O)Nc2ccc3c(c2)OCCO3)oc2ccccc12,-8,6,12,-77,4358,-10,2
C=CC[C@@H](CC(=O)N[C@@H](CO)Cc1ccccc1)C(=O)NCCOC(=O)[C@@H](CC=C)Cc1ccc(F)cc1,nt,2,2.5,-9,3782,3,3
O=C1NC(=O)N(c2cccc(Br)c2)C(=O)/C1=C/c1ccsc1,-2,-5,-2.7,-14,1971,2,8
CCOC(=O)CSc1ccc2nnc(CCNS(=O)(=O)c3ccc(C)cc3)n2n1,-1,-1,5.3,-10,3299,14,3
Cc1ccc(C)c(S(=O)(=O)NCc2ccc(C(=O)NCc3ccccn3)cc2)c1,12,1,-1.2,-6,2799,nt,nt
CCCCn1c(CNC(=O)C23CC4CC(CC(C4)C2)C3)nnc1SC(C)CC (stereo not given),-13,-5,1.7,-2,1910,7,-1
CCC(Cc1ccccc1)=NNC(=O)c1cccc(Br)c1,nt,8,3.1,nt,nt,8,10
C/C(CCc1ccccc1)=N\NC(=O)C1C2CCCCC21 (stereo not given),-1,nt,nt,-10,3965,nt,nt
O=C(Nc1cccc2ccccc12)OC1C=CS(=O)(=O)C1 (stereo not given),-9,-1,-3.5,-12,4563,nt,nt
CC(C)[C@H](NC(=O)[C@@H]1CSC2c3ccccc3C(=O)N21)C(=O)NC1CCCC1 (stereo not given in full),-3,0,3.3,-8,nt,3,-7
COc1cc(C2CC(=O)OC3=C2C(=O)CC(C)(C)C3)cc(OC)c1OC (stereo not given),-7,5,11,-18,4071,10,4
COCCCNC(=O)/C(C#N)=C/c1c(N2CCCCCC2)nc2ccccn2c1=O,1,9,2.4,-10,3679,-9,7
COc1ccc(C2c3c(oc4ccccc4c3=O)C(=O)N2CCN2CCOCC2)cc1OC (stereo not given),-4,6,0.7,-16,4063,-12,2
S=C(NCCN1CCOCC1)C(=S)NCCN1CCOCC1,nt,0,-0.2,-1,3819,7,20
NC(=O)C1CCN(C(=O)NC(=O)c2ccccc2)CC1,2,7,-1.2,-23,5773,2,-1
COc1ccccc1NC(=O)c1ccc(-n2ccnc2)c([N+](=O)[O-])c1,-13,7,3.4,-5,3524,0,5
CC1CC(C)CN(C(=O)c2cc3c(s2)CCC3)C1 (stereo not given),4,-3,0.5,-5,2030,nt,nt
O=C(CCC(=O)Nc1ccc(Br)cc1)NN=Cc1cc([N+](=O)[O-])ccc1O,nt,0,28,nt,nt,15,8
CC1(C)CC(=O)C(=NNc2ccc(Cl)cc2)CO1,nt,1,11,nt,nt,14,6
CC1CCN(S(=O)(=O)c2cc(C(=O)NC3(C)CCS(=O)(=O)C3)ccc2Br)CC1 (stereo not given),nt,3,3.4,-3,3421,14,4
CCN(CC)c1ccc(C=C2C(=O)OC3(CCCCC3)OC2=O)cc1,2,2,4.5,-11,5990,5,3
CCn1c(O)c(C=NN=C2CCCC2)c2ccc(C3=NNC(=O)CC3)cc21,nt,-2,0.0,nt,nt,-4,5
O=C(CNC(=O)c1cccc(-n2cnnn2)c1)Nc1ccc(F)c(F)c1,nt,-3,-1.8,-13,3419,0,7
COC(=O)c1ccc(C=Nn2c(C)nnc2C)cc1,nt,-4,0.4,nt,nt,6,9

# Screening data (PubChem BioAssay)
